Screens (PubChem)
motility – Vibrio cholerae motility inhibitors, OD read-out (AID 588778) | Vibrio cholerae motility, OD read-out; higher % means a stronger effect; test concentration not given here; primary cut-off and reference of the scale not given here; strong numbers were not always called active | inhibition, %; hits with a dose series show IC50 in µg/mL | 10,000 tested, under 10 active; in the data active means confirmed in a dose series
motility viability – also measured in motility; calls as there; inhibition, %; measured here: bacterial viability at 10 ug/mL;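 higher means fewer living bacteria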
* marks the source's active call; other numbers are inactive results; i = inactive. Some of the compounds tested; count on the stated rates, not on these rows.

SMILES	motility	motility viability
CC(C(=O)Nc1ccc(Br)cc1C(=O)c1ccccc1)N1CCOCC1 (configuration not stated)	34%	14
C=CCN(CC=C)C(=O)c1ccncc1	-2%	1
C=CCNC(=S)Nc1ccc(Cl)c(Cl)c1	i	64
COc1ccccc1-n1cc2c(=O)n(C)c(=O)n(C)c2c1	-8%	-3
Cc1ccc(C)n1-c1ccc(C(=O)N2CCOCC2)cc1	17%	-1
O=C(Nc1cccnc1)c1nc2ncccn2n1	1%	-5
CC(C)(O)C(=O)NNC(=S)Nc1cccc(C(F)(F)F)c1	21%	9
Cc1ccccc1/C=C/C1=CC(C)(C)NC(=S)N1	7%	6
Nc1cc(N)nc(SCC(=O)Nc2ccc(Br)cc2Cl)n1	30%	9
O=S(=O)(CCc1nnc(-c2ccc(F)cc2)o1)c1ccc(Cl)cc1	17%	0
O=C(Nc1ccccc1I)c1ccc(CSc2ccccc2)o1	-26%	-13
O=C1CC(Sc2nnnn2C2CCCCC2)C(=O)N1c1ccccc1 (configuration not stated)	37%	9
O=C(CN1CCOCC1)N1c2ccccc2C=Cc2ccccc21	17%	-2
CC1CN(C(=S)Nc2cccc(Cl)c2Cl)CC(C)O1 (configuration not stated)	-51%	-14
Cc1ccc(S(=O)(=O)NNC(=O)c2cccs2)cc1	-26%	-14
O=C(/C=C/c1ccc(Cl)cc1)c1ccc(NC(=O)c2cccnc2)cc1	-22%	-9
CC(=O)Nc1nnc(SCC(=O)Nc2nccs2)s1	1%	-4
O=C(NC1CCCc2ccccc21)c1ccc(Cl)s1 (configuration not stated)	15%	2
COc1cccc(CNCc2ccncc2)c1	-7%	-1
CCCOC(=O)Nc1cc(OC)c(Cl)cc1OC	-3%	-6
O=C(Nc1ccc(Br)cn1)c1ccccc1SCc1ccccc1	-15%	-11
Fc1ccc(-c2nnc(-c3ccc4c(c3)OCO4)o2)cc1	4%	-5
CSc1cccc(NC(=O)Nc2ccccc2)c1	22%	8
O=C(NCC1CCCO1)c1cccc(C(=O)NCC2CCCO2)n1 (configuration not stated)	8%	-5
Cc1ccc(C(C)C)c(OCC#CCN2CCNCC2)c1	9%	0
CC(NC(=S)Nc1ccc(S(N)(=O)=O)cc1)c1ccncc1 (configuration not stated)	0%	18
O=c1c2ccccc2nc(-c2cccs2)n1Cc1ccccc1	0%	-3
CCOC(=O)c1c(NC(=O)CSc2nnc3c4ccccc4n(CC)c3n2)sc2c1CCN(C)C2	-2%	-2
COc1ccccc1C(=O)N/C(=C/c1ccc(Br)cc1)C(=O)NCCC(=O)O	-6%	-4
Cc1ccc(S(=O)(=O)N2CCN(c3ccc([N+](=O)[O-])c(NCc4ccco4)c3)CC2)cc1C	-2%	1
O=C(Nc1ccc(Cl)cn1)c1cnn2cccnc12	3%	0
CCOc1ccc2nc(SCC(=O)NC(c3ccccc3)c3ccccc3)sc2c1	-5%	-8
CCCNC(=O)N1CC=C(c2ccccc2)CC1	1%	2
Cn1cnnc1SCC(=O)Nc1ccccn1	10%	32
NC(=NCCc1ccccc1)Nc1nc2ccccc2[nH]1	10%	3
O=c1[nH]c(SCc2nc3c(Cl)cc(Cl)cc3c(=O)n2-c2ccccc2F)nc2ccccc12	-4%	-6
O=C(CC12CC3CC(CC(C3)C1)C2)N1CCN(c2ccc([N+](=O)[O-])c(NC3CC3)c2)CC1	-37%	-20
COc1cc(C)nc(NC(=S)NC(=O)c2c(Cl)ccc(Cl)c2OC)n1	-11%	-14
COc1ccc(Cl)cc1-c1nc(-c2ccc([N+](=O)[O-])cc2)no1	-27%	-4
Cc1ccc(Oc2nc3ccccc3n3c(C)nnc23)c(C)c1	-6%	-2
Cc1occc1-c1nc(-c2ccc(Cl)cc2)no1	-5%	0
O=C1c2ccccc2C(=O)C1c1cccc2ccccc12	14%	2
COc1ccc(CNCC(CO)C2(Cc3ccccc3)CCOC(C)(C)C2)cc1 (configuration not stated)	14%	-2
CCOC(=O)C1CCN(C(=O)Cc2c(OC)ccc3cc(Br)ccc23)CC1	2%	-5
CCC1(C(=O)c2ccccc2)C2c3cc(Br)ccc3OC(=O)C21C(=O)c1ccco1 (configuration not stated)	-22%	-7
NC(=O)C1CCN(C(=S)c2cccs2)CC1	25%	13
Cc1cc(NC(=O)Cn2nc(C(F)(F)F)c3c2CCC3)no1	0%	-1
O=S(=O)(c1ccc(F)c(Cl)c1)N1CCOCC1	18%	1
COc1ccc(S(=O)(=O)Nc2ccc(S(=O)(=O)Nc3nc(C)cc(C)n3)cc2)cc1OC	-1%	3
COc1ccc(OC)c(S(=O)(=O)N2CCC(C(=O)NCCC3=CCCCC3)CC2)c1	-8%	-6
CC1(C)CC(C(=O)Nc2ccc(Br)cc2)CCO1 (configuration not stated)	2%	5
CCOC(=O)N1CCN(C(=O)C(Cl)(Cl)Cl)CC1	-4%	-8
COc1ccc([N+](=O)[O-])cc1NC(=O)C1C(c2ccccc2)C=CC(c2ccccc2)C1C(=O)O (configuration not stated)	10%	-3
Cc1ccc(S(=O)(=O)Cc2cccc(C(=O)OCc3ccccc3Cl)c2)cc1	1%	0
Cc1ccc2nc(/N=C(\N)NC(=O)N3c4ccccc4Sc4ccccc43)nc(C)c2c1	-6%	6
O=C(COc1ccc(Br)cc1Cl)Nc1ccc(S(=O)(=O)Nc2ccccc2)cc1	4%	-5
CSc1ccc(NC(=O)NCCN2CCc3ccccc3C2)cc1	16%	6
Cc1ccc(SCCSc2ncccn2)cc1	9%	6
O=C(NCc1ccccn1)c1cc(F)c(F)cc1Cl	21%	6
CC(=O)c1ccc(COC(=O)C2CC(=O)N(c3cccc(Cl)c3)C2)cc1 (configuration not stated)	82%	48

(next part)
SMILES	motility	motility viability
Cc1cc(C)n(-c2nc(-c3cccc(Cl)c3)cs2)n1	-20%	-11
Cc1cc(C(F)F)n2nc(C(=O)Nc3ccc4c(C(F)(F)F)cc(=O)oc4c3)nc2n1	-8%	-3
O=C1CN(C(=O)CC2c3ccccc3-c3ccccc32)CC(=O)N1	24%	13
Cc1cc(C)c(NC(=O)C2C3CCC4C(CCC32)C4(Cl)Cl)c(C)c1 (configuration not stated)	0%	-6
Cc1cc(C)c(S(=O)(=O)NCC(=O)Nc2ccc(F)c(Cl)c2)c(C)c1	-2%	-6
O=C1CCCc2c1[nH]c1ccc(C(F)(F)F)cc21	-7%	-1
Cc1sc(NC(=O)COc2ccc3c(C)cc(=O)oc3c2)c(C#N)c1C	-3%	-2
COC(=O)Cc1ccc(NC(=O)c2ccc3c(c2)C(=O)N(C(C)(C)C)C3=O)cc1	11%	24
CC(C)CC(=O)NC(=S)Nc1ccc(Br)c2ccccc12	10%	-5
CCn1cc(CNC(=S)Nc2cc(OC)ccc2OC)cn1	0%	-1
COCC(C)NCc1cccc2ccccc12 (configuration not stated)	8%	2
O=C(Nc1ccccn1)C1OCCc2ccccc21 (configuration not stated)	17%	7
O=C(CSc1ccc2ccccc2c1)N1CCOCC1	-1%	-3
O=C(Nn1cnnc1)c1cccc(C(F)(F)F)c1	9%	1
CCOCCc1nnc(NC(=O)c2cc(Cl)ccc2Cl)s1	4%	6
COC(=O)c1ccc(C2C3=C(CC(c4cccs4)CC3=O)Nc3ccccc3N2C(=O)C2CC2)cc1 (configuration not stated)	17%	15
Cc1c(C)n(C(=O)COc2cccc3cccnc23)c2ccccc12	-9%	-8
COC(=O)Cc1ccc(NC(=S)N2CCN(C(=O)c3ccco3)CC2)cc1	3%	-2
O=C1CC(c2ccc(Cl)cc2Cl)C2=C(CCCC2=O)N1 (configuration not stated)	14%	-2
O=C(Nc1cccc(Cn2cccn2)c1)c1cc(F)c(F)cc1Cl	0%	0
COc1ccc(NC(=O)Nc2ccc(Br)c(C)c2)cc1	-16%	-9
Cc1ccc(C(=O)N2CCN(C(c3ccccc3)c3ccccc3)CC2)cc1Cl	-23%	-6
CC(C)C12CN3CC(C(C)C)(CN(C1)C3C(O)C(O)C(O)CO)C2=O (configuration not stated)	4%	2
Cc1cccc(OCC(=O)NC(=S)Nc2sc(C)c(C)c2C#N)c1C	2%	0
CCOc1ccc(NC(=S)NC(NC(=O)c2ccccc2Cl)C(Cl)(Cl)Cl)cc1 (configuration not stated)	6%	0
CC1CCC(N(CCCN)Cc2ccco2)CC1C (configuration not stated)	5%	-1
Cn1nnc(-c2ccc(C(=O)O)cc2)n1	-18%	-3
CN1CCN(NC(=O)COc2ccc(C(C)(C)C)cc2Br)CC1	-2%	-6
N#CC1=C2Sc3ccccc3N2CC1=O	-2%	-7
Cc1ccc(-c2nc(SC3CC(=O)N(c4cccc(C(F)(F)F)c4)C3=O)n[nH]2)cc1 (configuration not stated)	8%	2
Oc1ccccc1/C=N/N1CCN(C(c2ccccc2)c2ccccc2)CC1	-10%	-7
O=C(Nc1nc(-c2ccc(F)cc2)cs1)C1CC1c1ccccc1 (configuration not stated)	-19%	-1
O=C(NCCSCc1ccccc1)c1ccc([N+](=O)[O-])cc1	48%	48
Cc1cnn(C(=O)c2oc3ccccc3c2C)c1	7%	1
C=C(C)CC(NCc1ccco1)c1ccc(OC)cc1 (configuration not stated)	-6%	2
CN(CC(=O)Nc1nccs1)S(=O)(=O)c1ccc(Br)cc1	-32%	-14
COc1ccc(NC(=S)NC(=O)C(C)Oc2ccc(Cl)cc2Cl)c([N+](=O)[O-])c1 (configuration not stated)	-17%	-7
COC(=O)c1ccsc1NC(=O)CN1c2cccc3cccc(c23)S1(=O)=O	5%	0
Cn1c(SCC(=O)c2ccc(F)cc2)nnc1C(O)c1ccccc1 (configuration not stated)	3%	-4
COC(=O)c1ccc(NC(=O)CCC(=O)c2ccc(Br)cc2)cc1	-57%	-17
C=C(C)c1cccc(C(C)(C)NC(=O)NCc2ccc(OC)c(OC)c2)c1	2%	7
COc1c(F)c(F)c(C(=O)NCc2ccc(-c3nc4ccccc4o3)cc2)c(F)c1F	-9%	-11
O=C(NC12CC3CC(CC(C3)C1)C2)c1cccc(I)c1	11%	20
Cc1cc(NC(=O)c2ccc(Cl)c(Cl)c2)c(C)cc1I	-6%	-5
Cc1ccc2c(ccc3nc(C)ccc32)n1	15%	-3
O=C1c2ccccc2C(=O)N1CCc1nc2ccccc2c(=O)n1-c1nccs1	-4%	-6
CCOc1ccc(NCc2c[nH]c3ccccc23)cc1	2%	6
CCn1nc(C)c(N2C(=O)c3cccc4c(Br)ccc(c34)C2=O)c1C	9%	-2
O=C(c1ccc(Cl)c(S(=O)(=O)N2CCCCC2)c1)N1CCOCC1	8%	-8
CCOC(=O)c1sc(NC(=O)NC2CCCCC2)cc1C	41%	8
COc1cccc(OCCNC(=O)c2cccc3ccccc23)c1	12%	0
CCN(CC)S(=O)(=O)c1cc(Br)c(C)cc1C	4%	-6
COc1ccc(CNC(=O)C2CC(=O)N=C(N)S2)cc1 (configuration not stated)	0%	-8
C=CCNCc1cc(Cl)ccc1OCC	9%	0
Cc1cc(C)nc(Nc2n[nH]c(-c3ccccc3Br)n2)n1	7%	0
O=C(Cn1cnc2ccccc2c1=O)Nc1nnc(SCc2ccccc2)s1	-10%	-6
c1cncc(CNCc2cccc3ccccc23)c1	19%	5
CCOC(=O)C(C)Sc1nc2c(c(-c3cccs3)c1C#N)CCCC2 (configuration not stated)	-3%	3
S=c1[nH]nc(-c2cc(-c3ccsc3)n[nH]2)n1-c1cccc2ccccc12	23%	33
O=C(Cc1ccc(Cl)cc1)NC(=S)Nc1ccccc1N1CCOCC1	1%	-3

Going on with the list.
SMILES	motility	motility viability
Cc1cc(N2CCCC2=O)cc(C)c1S(N)(=O)=O	-15%	-7
CC1(C)CC(=O)C2=C(C1)OC(N)=C(C#N)C21CCN(C(=O)OCc2ccccc2)CC1	-10%	0
O=C(Cn1c(SCc2ccccc2)nc2ccccc21)N1CCOCC1	-14%	-8
O=C1CC(c2ccsc2)c2ccc3ccccc3c2N1 (configuration not stated)	15%	0
COc1ccccc1CC1/C(=N\O)C2CCN1CC2 (configuration not stated)	-3%	-5
Cc1ccc(C2=NCCNC(C(F)(F)F)=C2)cc1	22%	7
CCCOc1ccc(NC(=O)CC2C(=O)N(C)C(=S)N2Cc2cccs2)cc1 (configuration not stated)	17%	5
CCc1c(C(=O)Nc2cc(C(=O)OC)ccc2C)csc1C	-8%	-3
